Source: PubChem BioAssay (several laboratories)
ugtP null kill = kills S. aureus RN4220 lacking UgtP. S. aureus RN4220 ugtP deletion, OD600 growth, 16 h; some inactives read as strong as hits. growth inhibition, % (no concentration beside the values). 330,000 tested, 0.54% active;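 active = z-score under -3 and OD600 up to 0.15 on both plates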;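 note: plate controls were untreated wells for no effect and antibiotic for full effect; wells of about 80 µL received 100 nL stock; the first replicate is given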
Mtb hypoxia inh = inhibitors of hypoxia-regulated fluorescent reporter in Mycobacterium tuberculosis; M. tuberculosis hypoxia-regulated fluorescent reporter, fluorescence; fluorescence inhibition, % (test concentration not listed); 300,000 tested, 0.1% active; AID 1159583;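 active = 35 to 45% if threefold the growth effect, above 45% if 1.5-fold the growth effect; inactive = the rest, general growth blockers included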;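 note: wells of about 50 µL received 100 nL stock; 0% = vehicle wells and 100% = reference inhibitor wells; whole bacteria with a GFP reporter of the hypoxia response; strong numbers were not always called active; many hits fall short of the cut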
PrP 5UTR inh = inhibition of PrP 5' UTR reporter expression | cell-based PrP 5' UTR mRNA reporter, plate reader | inhibition, % (concentration not given with the values) | 340,000 tested, 0.35% active;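 active = every replicate at 50% or more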;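 note: 0 = median of the neutral control wells; tested in H4 reporter cells; numbers are from one replicate; inactives centre near -14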
BJeLR viability = kills HRASV12-expressing BJeLR cells | BJeLR (HRASV12) viability, CellTiter-Glo ATP luminescence, 48 h; reference of the scale not given here | inhibition, % (test concentration not listed) | 300,000 tested, 0.17% active;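 active = replicate mean above 50%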;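 note: 50 nL library stock added to about 25 µL; numbers are from one replicate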
Autofluor counter = compound fluorescence in toxin protease inhibitor counterscreen. 360,000 tested, 3.1% active. fluorescence intensity (no concentration beside the values). compound autofluorescence counterscreen, microsphere flow cytometry; hits give high values;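 active = at least 3 SD above the mean of all compounds, about 16000 in these data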;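 note: 100 nL of 1 mM stock went into each well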
Sa RN4220 lethal = S. aureus RN4220 growth inhibition; OD600, 16 h; inhibition, % (concentration not given with the values); 330,000 tested, 0.33% active;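 active = z-score of -3 or lower and OD600 up to 0.18 on both plates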;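 note: plate controls were untreated cells for no effect and reference antibiotic for full effect; stock transfer was 100 nL into about 80 µL; one replicate is shown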
Mtb hypoxia inh growth = also measured in Mtb hypoxia inh; calls as there; growth inhibition, %; measured here: M. tuberculosis growth (absorbance);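 0% = vehicle and 100% = reference antibiotic; read after six days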
Numbers without * were called inactive; . = not tested or not shown.

(1) COc1cc(S(=O)(=O)N2CCOCC2)ccc1NC(=O)COC(=O)/C=C/c1cc(OC)c(OC)c(OC)c1
(2) COc1cc2[nH]c(C(=O)NCCc3ccccc3)cc2c(OC)c1OC
(3) COC(=O)CCCC1=CC2=C(c3ccccc3)C(=O)C(C)(OC(=O)C3CCCC3)C(=O)C2=CN1CCN1CCOCC1 (centres undefined)
(4) Cc1cc(=O)oc(C)c1C(=O)Nc1ccc(N(C)C)cc1
(5) CC1C(=O)N2CCCc3cc(NC(=O)C(=O)NCCN4CCOCC4)cc1c32 (centres undefined)
(6) NS(=O)(=O)c1ccc2nc(NC(=O)c3ccc4c(c3)OCCO4)sc2c1

compound no.	1	2	3	4	5	6
ugtP null kill	1.9	14.9	1.8	0.8	2.0	1.3
Mtb hypoxia inh	6.0	2.2	14.7	8.2	2.8	3.3
Mtb hypoxia inh growth	8.9	5.1	3.1	1.2	-3.0	3.9
PrP 5UTR inh	-18.7	-36.5	-14.8	-6.8	-4.8	-14.1
BJeLR viability	.	4.1	6.9	5.3	8.0	-6.5
Autofluor counter	2908	3772	3849	4173	5980	5398
Sa RN4220 lethal	2.7	3.9	7.3	5.2	4.1	1.8

(7) CCOC(=O)N1CCN(C(=O)CSc2nnc(-c3cc(OC)cc(OC)c3)o2)CC1
(8) O=C(CC(c1ccco1)S(=O)(=O)c1ccccc1)c1ccc(F)cc1 (centres undefined)
(9) COc1ccc(CCC(=O)Nc2cc(Cl)ccc2N2CCN(C)CC2)cc1
(10) O=C(Nc1ccc(NC(=O)c2ccco2)c(Cl)c1)c1ccc2c(c1)OCCO2
(11) CC(=O)CC(=O)Nc1cccc2c1CCCC2
(12) CCNCC1(c2ccc(OC)c(OC)c2)CCCC1

compound no.	7	8	9	10	11	12
ugtP null kill	-3.5	-1.2	4.2	-4.2	12.1	0.4
Mtb hypoxia inh	.	14.1	.	7.1	.	.
Mtb hypoxia inh growth	.	5.0	.	4.8	.	.
PrP 5UTR inh	-21.9	6.7	.	-32.5	-4.1	-24.7
BJeLR viability	0.5	3.7	-12.5	0.7	5.1	-5.8
Autofluor counter	2446	22035*	.	4395	3283	3047
Sa RN4220 lethal	1.7	1.8	-6.5	6.0	0.7	-2.1

(13) CCCn1c(NCc2cc(OC)ccc2OC)nc2ccccc21
(14) COc1cccc(CN2CC(C(=O)N(C)Cc3nc(C)cs3)CCC2=O)c1 (centres undefined)
(15) CCOc1ccc(C(=O)Nc2c3c(nn2-c2ccc(F)cc2)CS(=O)C3)cc1 (centres undefined)
(16) CN1CCN(S(=O)(=O)c2ccc(Cc3ccc(S(=O)(=O)N4CCN(C)CC4)cc3)cc2)CC1
(17) Cc1cc(C)n2nc(N)c(N=Nc3ccc4c(c3)OCO4)c2n1
(18) COc1ccccc1NC(=O)N1CCN(CCc2ccccc2)CC1

compound no.	13	14	15	16	17	18
ugtP null kill	0.9	3.4	0.6	4.0	-2.0	14.7
Mtb hypoxia inh	18.0	2.9	.	4.7	-1.1	7.0
Mtb hypoxia inh growth	6.5	4.8	.	6.0	-5.8	1.6
PrP 5UTR inh	-17.5	-4.3	-13.6	-31.5	-11.5	-7.8
BJeLR viability	4.0	-1.5	10.8	-6.2	5.4	-9.9
Autofluor counter	9883	5692	4478	3120	10240	4495
Sa RN4220 lethal	1.9	1.5	-1.3	5.4	4.9	1.3

(19) COc1ccc(C2Nc3ccccc3C(=O)N2NS(=O)(=O)c2ccc(C)cc2)cc1OC (centres undefined)
(20) CN1C(=O)C(O)(CC(=O)c2ccccc2O)c2cc(Br)ccc21 (centres undefined)
(21) CCN1C(C(=O)Nc2cc(C)on2)=C(O)c2ccccc2S1(=O)=O
(22) O=C(NC1(C(F)(F)F)OCCO1)c1ccc(F)cc1
(23) CCCNC(=O)C1CCCN(S(=O)(=O)c2ccc3c(c2)CC(C)N3C(=O)C2CC2)C1 (centres undefined)
(24) NC(=NOC(=O)c1cccc(Cl)c1)c1ccccn1

compound no.	19	20	21	22	23	24
ugtP null kill	5.2	12.3	0.5	-13.9	2.3	-0.4
Mtb hypoxia inh	0.9	.	1.1	-4.6	9.6	3.8
Mtb hypoxia inh growth	-3.2	.	-2.5	-3.7	1.9	-4.2
PrP 5UTR inh	-10.4	-3.3	-3.4	-7.5	-4.2	.
BJeLR viability	0.3	-0.1	-12.4	7.8	10.6	.
Autofluor counter	5615	5464	3008	3920	5643	.
Sa RN4220 lethal	4.9	2.6	12.5	-2.5	1.8	9.4

Some entries already given, showing only Mtb hypoxia inh growth and Autofluor counter.
No.	SMILES	Mtb hypoxia inh growth	Autofluor counter
20	CN1C(=O)C(O)(CC(=O)c2ccccc2O)c2cc(Br)ccc21 (centres undefined)	.	5464
21	CCN1C(C(=O)Nc2cc(C)on2)=C(O)c2ccccc2S1(=O)=O	-2.5	3008
22	O=C(NC1(C(F)(F)F)OCCO1)c1ccc(F)cc1	-3.7	3920
23	CCCNC(=O)C1CCCN(S(=O)(=O)c2ccc3c(c2)CC(C)N3C(=O)C2CC2)C1 (centres undefined)	1.9	5643

New compounds follow.
(25) OCC(O)C(O)C(O)C(O)c1nc2ccccc2[nH]1 (centres undefined)
(26) C=C(C)Cn1c(=O)c2c(nc3n2CC(C)CN3Cc2ccccc2)n(C)c1=O (centres undefined)
(27) CCOC(=O)c1cc(-c2ccccc2)sc1NC(=O)CSc1nnc(N)s1
(28) CC(=O)N1c2ccc(S(=O)(=O)N(C)CC(=O)NCc3ccc(C)cc3)cc2CC1C (centres undefined)
(29) O=C(NN=Cc1ccc(O)c([N+](=O)[O-])c1)c1ccccc1-n1cccc1
(30) CC1CC(C)CN(C(=O)CCS(=O)(=O)c2ccc3c(c2)NC(=O)CS3)C1 (centres undefined)

compound no.	25	26	27	28	29	30
ugtP null kill	3.4	-2.4	3.5	6.2	-1.4	.
Mtb hypoxia inh	-5.2	-1.6	14.8	-1.2	19.6	.
Mtb hypoxia inh growth	3.1	6.2	3.9	-4.1	16.1	.
PrP 5UTR inh	-22.9	-6.4	-13.5	-26.3	.	-18.3
BJeLR viability	-8.3	11.7	-5.2	-10.5	.	-5.7
Autofluor counter	2844	5358	3817	4325	.	5145
Sa RN4220 lethal	2.7	-4.8	-1.2	1.2	-0.8	.

(31) CC(=NNc1ccc(C#N)cc1[N+](=O)[O-])c1ccc(C)o1
(32) CCC(C(=O)NC(C)(C)C)N(Cc1ccccc1Cl)C(=O)c1snc(C(N)=O)c1N (centres undefined)
(33) OCCN1CCN(C(=S)Nc2ccccc2)CC1
(34) C=CCNC(=O)c1ccc(N(C)S(=O)(=O)c2ccc(OC)cc2)cc1
(35) CCc1nc2ccc(C(=O)NCCc3ccco3)cc2nc1CC
(36) O=C(Oc1cccc2c(OC(=O)N3CCCC3)cccc12)N1CCCC1

compound no.	31	32	33	34	35	36
ugtP null kill	-3.5	3.5	5.3	9.8	3.3	-1.8
Mtb hypoxia inh	10.5	-1.7	9.0	14.9	6.6	13.5
Mtb hypoxia inh growth	12.9	2.5	2.0	4.3	7.6	11.4
PrP 5UTR inh	.	-24.0	-14.4	0.1	-25.4	-13.3
BJeLR viability	.	-12.2	6.3	10.0	-7.5	-0.3
Autofluor counter	.	3817	3598	16765*	5040	2371
Sa RN4220 lethal	2.2	2.7	6.1	5.7	6.7	12.3

(37) CCCC1CC(C)(C(=O)Cn2[nH]c(=O)ccc2=O)OC1=O (centres undefined)
(38) O=S(=O)(c1ccccc1)N1N=C(c2ccc(Br)cc2)CC1c1ccco1 (centres undefined)
(39) CN(C)C(=O)OCc1c(-c2ccccc2)ncc2ccccc12
(40) CC(=O)Oc1ccc(C(=O)Nc2cccc(C(=O)Nc3ccccc3C(=O)O)c2)cc1
(41) CS(=O)(=O)N(CC(=O)NCc1ccc2c(c1)OCO2)c1cccc(Cl)c1
(42) COc1ccc(OC)c(S(=O)(=O)NCc2cn3cccc(C)c3n2)c1

compound no.	37	38	39	40	41	42
ugtP null kill	5.9	3.0	0.5	6.3	5.3	13.4
Mtb hypoxia inh	8.1	0.9	0.7	6.3	2.6	10.4
Mtb hypoxia inh growth	6.5	-6.0	-1.1	-2.5	-0.5	6.7
PrP 5UTR inh	4.9	1.2	-4.3	-23.8	-23.3	-18.7
BJeLR viability	6.7	0.7	.	6.2	7.8	-4.2
Autofluor counter	8535	4845	.	3027	4101	4231
Sa RN4220 lethal	4.2	3.8	2.1	-0.1	2.3	5.9

(43) COc1ccc(O)c(C(=O)c2coc(=N)c(C(=O)Nc3ccc(SC(F)F)cc3)c2)c1
(44) Cc1ccc(C(C(=O)NC2CCCC2)N2CCCC(C)C2)cc1 (centres undefined)
(45) CC(C)c1ccc2nc3sc(C(=O)N4CCc5ccccc5C4)c(N)c3cc2c1
(46) O=C(NCC(=O)N1CCCCC1)c1ccc2ccccc2c1
(47) O=C(c1cccc2ccccc12)C1CCCN(C(=O)CCCn2cncn2)C1 (centres undefined)
(48) Cc1ccc(NS(=O)(=O)c2cc([N+](=O)[O-])ccc2NNC(=S)Nc2cc(C)ccc2C)c(C)c1

compound no.	43	44	45	46	47	48
ugtP null kill	-6.9	-0.3	-23.4	-0.7	5.1	33.7
Mtb hypoxia inh	-17.0	0.7	2.9	1.3	3.4	4.1
Mtb hypoxia inh growth	10.7	6.6	-7.2	-8.9	4.3	4.2
PrP 5UTR inh	-68.3	-2.3	-21.9	-25.4	-47.2	-0.7
BJeLR viability	-10.2	7.0	-2.2	-5.1	2.1	29.5
Autofluor counter	4242	4434	8548	4355	3948	8732
Sa RN4220 lethal	0.5	5.2	-4.1	3.7	9.7	58.8

(49) CCc1nc(C)ccc1OC(=O)C12CC3CC(CC(C3)C1)C2
(50) CCOC(=O)c1cccc(NC(=O)CSc2nnnn2C)c1
(51) COC(=O)c1ccccc1OS(=O)(=O)N(C)C
(52) COc1cccc(N2CC(C(=O)NC3CCCCC3)CC2=O)c1 (centres undefined)
(53) CCCCCCCSc1nsc(N)n1
(54) CCC(=O)Nc1c(C(=O)N2CCN(c3ccccn3)CC2)cnn1-c1ccc(Cl)cc1

compound no.	49	50	51	52	53	54
ugtP null kill	13.0	12.8	3.5	-2.0	88.9*	5.5
Mtb hypoxia inh	8.3	3.9	-1.2	2.7	10.7	2.3
Mtb hypoxia inh growth	4.2	3.6	-0.5	5.7	11.4	-1.2
PrP 5UTR inh	-3.1	-5.9	1.5	-11.0	-24.1	-23.3
BJeLR viability	-8.1	-28.6	7.4	3.0	1.2	3.8
Autofluor counter	2572	5907	2026	3128	9917	2639
Sa RN4220 lethal	8.5	2.6	0.7	-13.7	8.2	3.3

(55) CC(CCc1ccccc1)NC(=O)c1ccc(Br)cc1 (centres undefined)
(56) COc1ccc(O)c(/C=N/NC(=O)CCC(=O)Nc2ccc(F)cc2)c1
(57) CCC(C)n1c(=O)c2sccc2n2c(CCCC(=O)N3CCC(C(N)=O)CC3)nnc12 (centres undefined)
(58) CC(C)C1CC(CCN)(c2ccccc2)CCO1 (centres undefined)
(59) CC(C)CC1(C)NC(=O)N(CC(=O)NC(=O)Nc2ccc3c(c2)OCCO3)C1=O (centres undefined)
(60) CC(=O)c1cccc(NC(=O)COC(=O)c2ccc3c(c2)OCO3)c1

compound no.	55	56	57	58	59	60
ugtP null kill	15.9	.	-6.5	-2.6	10.2	-2.5
Mtb hypoxia inh	.	.	-11.7	7.4	.	2.2
Mtb hypoxia inh growth	.	.	-3.6	2.9	.	2.5
PrP 5UTR inh	-5.8	-12.4	-6.1	-1.1	-12.6	-14.1
BJeLR viability	2.9	-9.4	-12.1	4.0	1.4	.
Autofluor counter	3273	3360	5387	4512	2750	2903
Sa RN4220 lethal	-0.2	.	-0.1	1.5	-0.3	5.2

(61) COc1ccc2[nH]c(C(=O)NCCN3CCCCC3)cc2c1
(62) Cn1cc(C(=O)OCC(=O)N2CCCCC2)c2ccccc21
(63) O=C(O)C1C2C=CC(O2)C1C(=O)NCc1ccccc1Br (centres undefined)
(64) CC1CCN(CCCNC(=O)c2ccc(N3CCCC3=O)cc2)CC1
(65) CCCNC(=O)c1onc(CSc2nc3ccccc3[nH]2)c1C(=O)NCCC

compound no.	61	62	63	64	65
ugtP null kill	-15.7	5.0	11.3	11.1	3.5
Mtb hypoxia inh	-11.2	13.5	4.5	5.1	0.8
Mtb hypoxia inh growth	-3.0	13.7	2.3	3.4	-1.1
PrP 5UTR inh	.	-9.5	-6.2	-0.7	-6.1
BJeLR viability	-1.8	.	9.9	16.9	4.4
Autofluor counter	.	3538	11019	5257	3546
Sa RN4220 lethal	2.6	6.3	3.5	2.8	-1.5
